High-throughput results: PubChem BioAssay, National Center for Advancing Translational Sciences (NCATS)
miR-21 reporter: qHTS Assay for Modulators of miRNAs and/orActivators of miR-21. AID 2288, 2010. Potency, µM (top dose mostly 38.3 µM), for inactives: at the highest dose reporter change, positive = more light. 340,000 tested, under 10 active. HeLa miR-21 FLuc reporter, luciferase, 48 h; active = well fitted rising curve with a large enough effect; inconclusive = small, poorly fitted or top-dose-only effect; inactive = no such curve, though single readings can be large or run the other way;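 further: % of control where 0% means no effect; miR-21 action dims this reporter so a rising signal means less miR-21 action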
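HeLa miR-21-FLuc reporter line, endogenous miR-21; 2000 cells/well in DMEM/10% FBS; compound titration up to ~40uM final, 48 h, 37 degree Celsius; luciferase detection reagent, 15 min lysis, CCD luminescence.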
Rango release inh: qHTS Assay for Inhibitors of RanGTP induced Rango (Ran-regulated importin-beta cargo) - Importin beta complex dissociation. Snurportin-1 (Homo sapiens) + GTP-binding nuclear protein Ran (Homo sapiens) + Importin …. Biochemical FRET Rango-importin beta, RanGTP-induced dissociation. Potency, µM (doses to about 46.1 µM), inactives show at the highest dose activity change, negative = inhibition. 340,000 tested, 0.071% active; active means falling FRET ratio curve, often poorly fitted, with flat reads before Ran was added; inconclusive means other falling curves, or compound fluorescence or quenching; inactive means flat or rising ratio curve;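 further: potency means the concentration at half of the fitted maximal effect; % of control where 0% means no effect; nearly all actives have a fitted effect of over 45% in size; -100% = wells without RanGTP and RCC1; the record marks most hits as doubtful in a second field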
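Recombinant Rango FRET biosensor (EYFP–snurportin 1 IBB–cerulean CFP10) at 0.1 uM premixed with 0.25 uM importin beta in PBS, 1 mM DTT, 0.02% Tween-20, 0.1% BSA. Compound added 5 min; RanGTP-RCC1 (0.6 uM Ran, 2 mM GTP, 0.2 uM RCC1) then triggers release, read at 45 min.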
Rango-impB inh: qHTS Assay for Inhibitors of Rango (Ran-regulated importin-beta cargo) - Importin beta complex formation; Importin subunit beta-1 (Homo sapiens), Q14974; Rango CFP/YFP FRET sensor + importin beta, 45 min; Potency, µM (series often up to 92.2 µM), for inactives: at the highest dose inhibition of complex formation; 340,000 tested, 0.031% active; active = rising FRET ratio curve, often small or poorly fitted; inconclusive = mostly compound fluorescence or quenching in the first reads; inactive = flat curves in all reads;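 further: potency means the concentration at half of the fitted maximal effect; 0% = DMSO wells and 100% = buffer wells lacking importin beta; nearly all actives have a fitted effect of over 15% in size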
Target sequence (Q14974 whole entry, looked up): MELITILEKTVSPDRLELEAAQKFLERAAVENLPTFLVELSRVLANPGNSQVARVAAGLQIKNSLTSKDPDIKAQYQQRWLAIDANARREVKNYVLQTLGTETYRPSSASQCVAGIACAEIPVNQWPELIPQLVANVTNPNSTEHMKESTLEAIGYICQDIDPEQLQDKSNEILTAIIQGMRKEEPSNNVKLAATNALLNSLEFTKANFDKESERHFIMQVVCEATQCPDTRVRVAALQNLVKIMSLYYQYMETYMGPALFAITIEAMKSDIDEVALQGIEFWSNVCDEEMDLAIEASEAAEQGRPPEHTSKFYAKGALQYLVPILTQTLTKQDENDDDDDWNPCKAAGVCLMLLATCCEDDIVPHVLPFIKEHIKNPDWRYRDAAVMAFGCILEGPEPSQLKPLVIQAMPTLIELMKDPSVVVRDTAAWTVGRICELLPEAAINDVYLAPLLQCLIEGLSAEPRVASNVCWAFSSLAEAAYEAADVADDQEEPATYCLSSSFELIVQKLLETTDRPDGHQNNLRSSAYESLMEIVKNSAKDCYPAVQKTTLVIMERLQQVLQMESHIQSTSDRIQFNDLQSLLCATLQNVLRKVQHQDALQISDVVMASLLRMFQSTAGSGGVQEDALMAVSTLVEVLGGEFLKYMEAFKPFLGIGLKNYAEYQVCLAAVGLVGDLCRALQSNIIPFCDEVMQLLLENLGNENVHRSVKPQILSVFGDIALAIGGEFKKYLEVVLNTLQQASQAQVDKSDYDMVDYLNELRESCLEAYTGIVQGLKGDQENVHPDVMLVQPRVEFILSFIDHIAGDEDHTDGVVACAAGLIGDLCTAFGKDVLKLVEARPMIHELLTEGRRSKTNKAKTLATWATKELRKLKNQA
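Inhibition scored from the CFP 486 nm/YFP 530 nm FRET ratio 45 min after adding 0.125 microM importin beta to 50 nM Rango biosensor preincubated 5 min with compound (room temperature, PBS with DTT, Tween-20, BSA). No-importin wells as positive control.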
GLA inh pH 4.5: qHTS Assay for Inhibitors of Human alpha-Galactosidase at pH 4.5; Alpha-galactosidase A (Homo sapiens), P06280; purified enzyme, 4-MU-alpha-Gal fluorescence, pH 4.5; activity change, negative = inhibition, % at 105 µM; 230,000 tested, under 10 active; AID 1467, 2008; inconclusive = small, poorly fitted or top-dose-only inhibition, or a rising curve; inactive = flat fitted curve, though single readings scatter; no compound was filed as active;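 further: 0% = full activity with enzyme and -100% = basal without enzyme; dose as in the result columns while the protocol names 77 µM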
* = called active by the depositor; ? = inconclusive; · = not tested or not shown.

SMILES | miR-21 reporter | Rango release inh | Rango-impB inh | GLA inh pH 4.5
CN1CCN(C(=O)CSc2ccc(Cl)cc2)CC1 | 2% | 3% | -3.6% | 3
COc1cccc(/C(C)=N/NS(=O)(=O)c2ccc(Cl)cc2)c1 | -7% | 4% | -1.5% | 4
O=c1cc(N2CCCCC2)c(-c2ccccc2)n[nH]1 | 0% | 10% | -7.0% | 0
COc1cccc(C(=O)Nc2ccc(NC(=O)C3CC=CCC3C(=O)O)cc2)c1 (configuration not stated) | -7% | 0% | 0.5% | ·
CC(C)c1ccc(S(=O)(=O)c2cnc(=S)[nH]c2N)cc1 | -3% | 3% | 0.6% | ·
CN(C(=O)CSC1=Nc2ccccc2C2=NC(c3ccccc3)C(=O)N12)C1CCCCC1 (configuration not stated) | -6% | -13% | 2.7% | 18
Cc1ccc(/C(N)=N/OC(=O)COc2ccccc2Cl)cc1 | -61% | 1% | 0.0% | -6
CC(=O)Nc1ccc(/C(C)=N/NS(=O)(=O)c2ccccc2)cc1 | -27% | 4% | -0.3% | 6
Cc1nn(-c2ccccc2)c(N)c1N=Nc1cccc(S(=O)(=O)N2CCOCC2)c1 | 18% | 18% | -3.9% | -22
CN(C(=O)c1ccccc1OC1CCN(S(C)(=O)=O)CC1)C1CCOC1 (configuration not stated) | 0% | 15% | 2.0% | 4
CN1CCCN(C(=O)c2ccc(Br)s2)CC1 | -5% | -9% | -0.1% | ·
Cc1onc(-c2ccccc2)c1C(=O)NC(=S)NNC(=O)c1ccncc1 | 9% | 1% | -1.2% | -9
CC(=O)Nc1ccc(S(=O)(=O)N(C)CC(=O)NNc2c(F)c(F)cc(F)c2F)cc1 | · | -1% | 5.1% | ·
Cc1cnc(C(=O)Nc2cccc(-c3nnc4n3CCCCC4)c2)cn1 | -1% | 16% | -0.2% | -6
O=C(CCN1C(=O)c2ccccc2S1(=O)=O)Nc1ccccc1O | -11% | -4% | -0.1% | 4
O=C(COc1ccc(F)cc1Cl)Nc1cccc(S(=O)(=O)N2CCCCCC2)c1 | · | 0% | 0.6% | ·
COc1ccc(C(=O)Nc2ccc(C3(C#N)CCCC3)cc2)cc1 | -4% | -7% | -0.2% | -1
O=C(COC(=O)c1ccccc1C(=O)c1ccccc1)NCCc1ccc(Cl)cc1Cl | 0% | 0% | -1.0% | -4
C=CCOc1cccc(CNCCCN2CCOCC2)c1 | -5% | -7% | 0.4% | 0
N#Cc1ccc(-c2nc3ccccc3nc2-c2ccccc2)cc1C#N | -3% | 0% | 0.4% | -5

Some entries already given with just Rango release inh, Rango-impB inh and GLA inh pH 4.5:
molecule	Rango release inh	Rango-impB inh	GLA inh pH 4.5
COc1cccc(/C(C)=N/NS(=O)(=O)c2ccc(Cl)cc2)c1	4%	-1.5%	4
O=c1cc(N2CCCCC2)c(-c2ccccc2)n[nH]1	10%	-7.0%	0
COc1cccc(C(=O)Nc2ccc(NC(=O)C3CC=CCC3C(=O)O)cc2)c1 (configuration not stated)	0%	0.5%	·
CC(C)c1ccc(S(=O)(=O)c2cnc(=S)[nH]c2N)cc1	3%	0.6%	·
CN(C(=O)CSC1=Nc2ccccc2C2=NC(c3ccccc3)C(=O)N12)C1CCCCC1 (configuration not stated)	-13%	2.7%	18

Returning to the listing, repeating the 6 entries before the break.
SMILES | miR-21 reporter | Rango release inh | Rango-impB inh | GLA inh pH 4.5
O=C(CCN1C(=O)c2ccccc2S1(=O)=O)Nc1ccccc1O | -11% | -4% | -0.1% | 4
O=C(COc1ccc(F)cc1Cl)Nc1cccc(S(=O)(=O)N2CCCCCC2)c1 | · | 0% | 0.6% | ·
COc1ccc(C(=O)Nc2ccc(C3(C#N)CCCC3)cc2)cc1 | -4% | -7% | -0.2% | -1
O=C(COC(=O)c1ccccc1C(=O)c1ccccc1)NCCc1ccc(Cl)cc1Cl | 0% | 0% | -1.0% | -4
C=CCOc1cccc(CNCCCN2CCOCC2)c1 | -5% | -7% | 0.4% | 0
N#Cc1ccc(-c2nc3ccccc3nc2-c2ccccc2)cc1C#N | -3% | 0% | 0.4% | -5
Cc1cc(Cl)c(S(=O)(=O)Nc2ccc3c(c2)OCCO3)cc1OCC(=O)NC1CCCCC1 | 1% | 0% | -2.1% | -17
COc1ccc(OC)c(/C=C/C(=O)N2CCN(S(=O)(=O)c3cc(C)ccc3C)CC2)c1 | · | -9% | -0.9% | ·
CC1CCCCN1c1nnc(NC(=O)Cn2c(=O)oc3ccccc32)s1 (configuration not stated) | -13% | -15% | 0.5% | -7
CCOc1ccccc1-c1nc(-c2cc3ccccc3nc2OC)no1 | -6% | -5% | ? | 6
CC(=O)c1cccc(S(=O)(=O)NC(C)C2CC3CCC2C3)c1 (configuration not stated) | 2% | -1% | 5.6% | ·
Cc1nc2nc(C)c(NS(=O)(=O)c3ccc(Cl)s3)c(=O)n2[nH]1 | 0% | 0% | 5.2% | ·
COc1ccc(S(=O)(=O)NCCCN2CCOCC2)cc1F | 0% | 6% | 1.1% | ·
O=C(COC(=O)C1CCC(=O)N1)Nc1ccc(Oc2ccccc2)cc1 (configuration not stated) | -5% | 0% | -0.6% | 8
C=CCNc1nc(NCc2ccccc2)c(C#N)c2c1CN(C)CC2 | 9% | ? | ? | -10
CC(C)=C(C#N)c1nc2ccccc2s1 | -10% | 7% | ? | -21
Cc1nc2nc(-c3ccco3)nn2c(C)c1Cl | -15% | -7% | 0.6% | 3
Cc1ccccc1CN1C2=NCCCN2c2ccccc21 | 13% | 1% | 0.5% | 1
Cc1cnc(C(=O)NCC(=O)Nc2ccccc2Br)cn1 | · | -10% | -5.4% | ·
O=C(Cc1nnc(NC(=O)Nc2ccccc2)s1)Nc1ccccc1 | 1% | 13% | -2.1% | 1
CCc1ccccc1NC(=O)CN(C)C(=O)CSc1nc2cc(Cl)ccc2s1 | -7% | 4% | -0.2% | -3
COC(=O)C(CC(C)C)NC(=O)CNC(=O)c1ccccc1C (configuration not stated) | 0% | 0% | 4.6% | -3
O=C(NCC1CCN(Cc2ccccc2Cl)CC1)Nc1ccccc1F | 0% | 6% | -1.7% | ·
CCN1C(=O)[C@H]2[C@@H](c3ccc(-c4ccc(Cl)c(Cl)c4)c(OC)c3)N[C@@](Cc3ccccc3)(C(=O)OC)[C@H]2C1=O | · | 1% | -3.2% | ·
CN(C)S(=O)(=O)c1ccc(S(=O)(=O)NC2CCOC(C)(C)C2)cc1 (configuration not stated) | -3% | 3% | 1.3% | -23
Nc1ccc(Oc2ccc3nc(-c4ccccc4)c(-c4ccc([N+](=O)[O-])cc4)nc3c2)cc1 | 9% | -6% | 0.5% | -8
CC1Nc2ncnc(N3CCN(c4ccccc4)CC3)c2N(Cc2ccc(Br)cc2)C1=O (configuration not stated) | · | -15% | 0.8% | ·
COc1ccc2nc(SC)c(C#N)cc2c1 | 2% | -4% | -3.1% | 4
COc1ccc2c(c1)c(C(=O)N/N=C/c1cccc(O)c1)c(C)n2C | 1% | 1% | 1.4% | -4
CN(C)CCCNC(=O)C[C@H]1C[C@H](C(=O)N2CCCCC2)[C@@]2(CCc3ccccc3)c3[nH]c4ccc(Cl)cc4c3CCN2C1=O | · | -3% | -1.1% | ·
O=C1ON=C(c2ccccc2)/C1=C/c1cccnc1 | 0% | -7% | 0.4% | 7
CC(=O)Nc1ccc(C)cc1 | · | 1% | 5.1% | ·
CC(C)(C)C(=O)O/N=C(\N)c1ccc(-c2csnn2)cc1 | -57% | 20% | -1.4% | 1
CC(SCC(=O)Nc1ccccc1)c1nc2ccccc2c(=O)[nH]1 (configuration not stated) | -4% | 0% | -0.2% | ·
CC(C)c1ccccc1NC(=O)COC(=O)c1ccc(Cl)c(S(=O)(=O)N2CCCCCC2)c1 | -2% | 10% | -1.6% | -12
CCOc1ccc(C(=O)C(c2ccccc2)N2CCOCC2)cc1 (configuration not stated) | -3% | 1% | 0.4% | 2
O=C(NC1CCS(=O)(=O)C1)c1cccc(S(=O)(=O)N2CCOCC2)c1 (configuration not stated) | -6% | 8% | 4.9% | 6
Nc1ccc(Br)cc1C(NCC(=O)O)c1ccccc1 (configuration not stated) | 1% | 6% | 5.2% | 6
CCN(c1ccccc1)S(=O)(=O)c1ccc(F)cc1C | -3% | 2% | 1.7% | 2
COc1cccc(-c2cn3nc(C)c(C)nc3n2)c1 | -45% | ? | ? | 5
CC(C)NC(=O)c1onc(CSc2ccncc2)c1C(=O)NC(C)C | · | 3% | -1.0% | ·
CCN(CC)C(=O)c1cccc(-c2ccc(OC)cc2)c1 | -24% | -14% | -0.6% | 10
O=C(N/C(=C/c1ccco1)C(=O)N1CCCCCC1)c1cccs1 | -6% | -10% | ? | -12
COc1ccc(Cl)cc1NC(=O)CN1CCC(n2nnc3ccccc32)CC1 | -15% | -3% | -0.7% | -6
O=C(c1cc(-c2cccs2)nc2ccccc12)N1CCN(c2ccccc2O)CC1 | 8% | -2% | 1.5% | -4
COc1cnn(-c2ccccc2)c(=O)c1SCc1ccc(Cl)cc1Cl | -13% | 1% | -1.3% | -5
CCOc1cc(C(C(=O)NCC2CCCO2)N(C(=O)Cn2nnc3ccccc32)c2ccc(OC)c(OC)c2)ccc1O (configuration not stated) | 0% | -16% | -1.4% | ·
CCc1nc(SCc2ccccn2)[nH]c(=O)c1C | -1% | -3% | -0.7% | -11
COc1cccc(N2CCN(C(c3ccccn3)c3nnnn3C(C)(C)C)CC2)c1 (configuration not stated) | -6% | -10% | -0.4% | -5
COc1ccc(NC(=O)/C=C/c2ccccc2[N+](=O)[O-])c(OC)c1 | -27% | -5% | -3.6% | 3
Cc1cc(C(C)(C)C)ccc1OCCOCCN1CCCC1 | 1% | 8% | 0.3% | -6
Nc1nnc(CCOc2ccccc2Cl)s1 | -16% | -4% | -0.7% | -20
NC(=O)c1c(NC(=O)C(=O)N2CCOCC2)sc2c1CCCC2 | -3% | 19% | -0.9% | ·
COc1cc(C)nc(N2CCCC(C(=O)Nc3cc(Cl)ccc3OC)C2)n1 (configuration not stated) | 15% | -2% | -0.1% | -18
NS(=O)(=O)c1ccc(CNC(=O)c2ccc3c(c2)OCO3)cc1 | · | -1% | -0.1% | ·
CN(CC(=O)NCCCn1ccnc1)S(=O)(=O)c1ccc(Cl)cc1 | · | 2% | ? | ·
CC1(C)CC(=O)/C(=C(\O)c2ccccc2)C(=NCCc2ccccc2)C1 | -1% | ? | -0.1% | -2
C=CCNC(=O)/C=C/c1ccc(C(C)C)cc1 | -75% | 5% | -1.6% | -4
CCOC(=O)CC1C(=O)NCCN1C(=O)c1cc2c(=O)n3cccc(C)c3nc2s1 (configuration not stated) | -12% | -22% | ? | ?
COc1ccc(NC(=O)CSc2c(C)nn(-c3nnc(C)c(=O)[nH]3)c2C)cc1 | -1% | 11% | -1.0% | -20
CC(=O)NCCC(=O)Nc1ncc(S(=O)(=O)c2ccc([N+](=O)[O-])cc2)s1 | · | -9% | 1.6% | ·
O=C(CS(=O)(=O)c1ccccc1)Nc1nnc(C(F)(F)F)s1 | 3% | -11% | -0.9% | ·
Cc1nn(Cc2ccc(Cl)cc2Cl)c(Cl)c1/C=N/NC(=O)CNc1cccc(C(F)(F)F)c1 | 0% | · | · | -1
COc1ccc(CC(=O)Nc2nncs2)cc1OC | -8% | -10% | 0.6% | -6
COc1ccc(NC(=O)Cn2nnc(C(=O)NCc3ccc4c(c3)OCO4)c2N)c(OC)c1 | -5% | -5% | -2.0% | ·
CCc1c(C)nc(SCC(=O)N2CCCCC2)[nH]c1=O | 0% | 14% | 0.6% | ·
COC(=O)CCC1(C(N)=O)CCC(=O)c2ccccc21 (configuration not stated) | · | -15% | -1.3% | ·

These rows are one share of the data; count on the stated rates, not on these rows.
